Screens from PubChem.
HNF4A DNA FP: change in binding of human HNF4 alpha to DNA. activity change, % at 10 µM. P41235. actives 0.3% (n = 360,000). HNF4a-FITC DNA binding, fluorescence polarization, 1 h. AID 1224865; in the data active = activity change above about 30%, passing the limit was not always enough;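 also: controls were the assay level and a saturating level of protein; the project sought stronger binding though the title names inhibitors; some compounds called inactive have numbers as strong as hits; positive values seem to mean higher polarization but the record does not say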
Target sequence (P41235 whole entry, looked up): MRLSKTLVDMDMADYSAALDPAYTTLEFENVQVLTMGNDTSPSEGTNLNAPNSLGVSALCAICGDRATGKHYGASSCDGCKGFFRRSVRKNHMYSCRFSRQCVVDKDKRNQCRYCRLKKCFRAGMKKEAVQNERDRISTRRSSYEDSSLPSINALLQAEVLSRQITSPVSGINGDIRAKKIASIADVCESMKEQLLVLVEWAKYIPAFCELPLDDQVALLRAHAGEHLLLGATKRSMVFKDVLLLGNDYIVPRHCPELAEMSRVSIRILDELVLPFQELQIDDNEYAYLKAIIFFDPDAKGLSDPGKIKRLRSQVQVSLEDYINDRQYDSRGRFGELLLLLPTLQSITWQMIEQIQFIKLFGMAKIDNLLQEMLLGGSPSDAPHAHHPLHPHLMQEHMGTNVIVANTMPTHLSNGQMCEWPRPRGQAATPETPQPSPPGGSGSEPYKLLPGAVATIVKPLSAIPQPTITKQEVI
FGF22 binding: FGF22 (human) thermal shift binding. recombinant FGF22 thermal shift, SYPRO orange fluorescence; percent of sucrose octasulfate shift, DMSO zero. calls only at 9.99 µM. actives 1.5% (n = 340,000);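 active = melting point raised past a set limit in the mean and every replicate; inconclusive = no clear call; three in four hits are not shown here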
ALR H2O2 inh: inhibitors of human sulfhydryl oxidase ALR; purified ALR, DTT oxidation, H2O2 HRP-luminol luminescence; inhibition, % (test concentration not listed); actives 3.8% (n = 290,000); AID 485317;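 active = mean and each replicate at 75% or more; inconclusive = only one of the two met; inactive = neither met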;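 also: stock transfer was 7.5 nL into about 7.5 µL; 0% = neutral wells and 100% = wells with inactivated enzyme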
Target sequence (P55789 whole entry, looked up): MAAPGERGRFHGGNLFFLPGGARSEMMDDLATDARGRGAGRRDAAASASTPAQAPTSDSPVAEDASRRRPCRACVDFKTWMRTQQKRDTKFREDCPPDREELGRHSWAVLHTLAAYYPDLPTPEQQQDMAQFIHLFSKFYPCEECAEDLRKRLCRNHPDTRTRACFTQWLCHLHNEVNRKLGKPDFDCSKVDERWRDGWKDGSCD
LANA-H2B inh: blocks KSHV LANA binding to histone H2A/H2B. inhibition, % (concentration not given with the values). Q9QR71. actives 0.6% (n = 320,000). cell-free LANA-H2A/H2B peptide, fluorescence polarization; in the data active = inhibition mostly above about 10%, no sharp cut-off; inactive = mostly below about 6.7%;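 also: stock transfer was 7.5 nL into about 10 µL; 0% = median of vehicle wells and 100% = median of positive control wells; one replicate is shown; the record names a cut of 25% in any replicate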
UCH37 DUB inh: inhibitors of human deubiquitinating enzyme UCH37 | Q9Y5K5 | purified proteasome/UCH37, Ub-AMC cleavage fluorescence | inhibition, % (concentration not given with the values) | actives 0.33% (n = 330,000) | AID 588478;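 active = mean of two replicates above 20%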;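 also: 0% = compound-free wells with enzyme and 100% = wells lacking proteasome; stock transfer was 100 nL into about 20 µL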
Target sequence (Q9Y5K5 whole entry, looked up): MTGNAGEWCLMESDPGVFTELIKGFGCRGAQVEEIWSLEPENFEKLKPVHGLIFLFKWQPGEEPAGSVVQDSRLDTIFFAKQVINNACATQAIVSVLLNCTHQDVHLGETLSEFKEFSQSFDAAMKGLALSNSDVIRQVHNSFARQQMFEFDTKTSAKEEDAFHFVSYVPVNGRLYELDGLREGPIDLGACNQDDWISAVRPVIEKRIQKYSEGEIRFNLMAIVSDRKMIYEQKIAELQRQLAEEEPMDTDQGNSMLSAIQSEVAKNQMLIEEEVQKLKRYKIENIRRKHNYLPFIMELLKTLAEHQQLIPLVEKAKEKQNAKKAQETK
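Assay system: Proteasome-bound UCH37. Buffer or medium: pH 7.4 Tris-HCl (50 mM) with ovalbumin, ATP-MgCl2, DTT. Incubation: 30 min preincubation with enzyme, 25 min cleavage at room temperature. Measured by: fluorescence, ex 355 nm, em 460 nm. Read-out basis: percent inhibition. Control set: wells without proteasome as full block, compound-free enzyme plus substrate as uninhibited.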
Ecoli growth: inhibitors of Escherichia coli growth; AID 1053175; OD600 absorbance (concentration not given with the values); OD600, 23 h; stronger effect = lower value; actives 0.21% (n = 330,000);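 active = OD600 absorbance below the run mean of sample wells minus 3.6 SD, in any replicate, cut at about 0.56 in these data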;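 also: stock transfer was 300 nL into about 60 µL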
B2AR ag: human beta-2 adrenergic receptor agonism by FAP | P07550 | Am2.2-beta2AR cells, FAP receptor internalization, flow cytometry; reference of the scale not given here | response, % (no concentration beside the values) | actives 0.43% (n = 340,000);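 active = response above a set limit, near 3 SD of response in nonfluorescent compounds, cut at about 42% in these data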;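 also: stock transfer was 100 nL into about 11 µL; a reference agonist was the positive control; negative values mostly stem from fluorescent compounds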
* = called active by the depositor; i = inactive; ? = inconclusive; . = not tested or not shown.

SMILES	HNF4A DNA FP	FGF22 binding	ALR H2O2 inh	LANA-H2B inh	UCH37 DUB inh	Ecoli growth	B2AR ag
O=C1NC(=Nc2ccccc2)S/C1=C/c1cccnc1	3.8	i	-6	0.0	5.3	0.67	-17
CCCCCC(O)(CCN1CCCCC1)c1ccccc1 (stereo unspecified)	-1.1	i	.	-0.1	0.8	0.62	0
CN(CC(=O)Nc1ccc(N2CCOCC2)cc1)Cc1c(O)ccc2ccccc12	-1.2	i	44	3.6	-2.9	0.69	-9
O=C(Cc1ccc2c(c1)OCO2)NN=Cc1ccc([N+](=O)[O-])o1	0.1	i	-49	-2.2	10.0	0.54	1
Cc1ccc(-n2c(SCC(=O)N3c4ccccc4Sc4ccccc43)nnc2-c2ccncc2)cc1	2.2	.	-7	0.8	5.2	0.68	-6
Nc1cc([N+](=O)[O-])ccc1N1C(=O)CCCC1=O	-5.5	i	-5	-5.6	7.6	0.69	-4
COc1ccccc1-c1nc(=S)c(C(C)=O)c(C)[nH]1	3.0	i	.	-3.0	2.2	0.65	-3
CCOC(=O)c1c(C)sc2c1N(C(=O)CN1CCOCC1)c1cc(Cl)ccc1S2	-1.0	.	-11	-1.2	3.0	0.67	-3
O=S(=O)(Nc1ccc(Cc2ccncc2)cc1)c1ccc(Cl)s1	4.6	.	-6	0.1	7.1	0.66	-12
CC(Oc1ccccc1F)C(=O)Nc1ccc2ccccc2c1 (stereo unspecified)	1.2	.	.	1.9	4.9	0.68	0
Cc1ccc(OCC(O)Cn2c(=N)n(CCN3CCOCC3)c3ccccc32)cc1 (stereo unspecified)	-0.8	.	-6	5.7	-0.1	0.73	12
COc1ccccc1N(Cc1cc(=O)[nH]c2ccccc12)C(=O)C(C)C	-2.0	i	-18	-3.8	-2.6	0.66	2
COc1ccc(OC)c(N(CC(=O)N2CCCC2)S(C)(=O)=O)c1	2.5	i	-1	-3.9	2.0	0.71	1
Cc1ccc(S(=O)(=O)Cn2nnnc2CN2CCN(Cc3ccc4c(c3)OCO4)CC2)cc1	-2.7	.	-3	1.1	0.3	0.76	-5
O=C(c1cccc(Br)c1)N1CCN(C(=O)N2CCOCC2)CC1	0.3	.	0	3.2	5.5	0.72	0
CCOc1ccc2nc(SCC(=O)Nc3cc(C)on3)c(C)cc2c1	-2.0	i	0	0.2	0.6	0.71	12
O=C1/C(=C/c2ccc(F)cc2)SC(=S)N1N1CCOCC1	0.9	i	-3	-0.6	2.2	0.67	3
CCCNCc1nnc(-c2ccccc2Cl)o1	2.1	.	3	2.0	-0.6	0.67	4
CCC(=O)Nc1ccc2nc(C)n(CC(=O)Nc3ccccc3)c(=O)c2c1	6.4	i	-15	6.7	-11	0.69	1
Cc1noc(C)c1COC(=O)c1cccc(S(=O)(=O)N2CCOCC2)c1	-0.7	i	-7	0.5	3.5	0.7	5

Single records (already shown):
Shown for Cc1ccc(S(=O)(=O)Cn2nnnc2CN2CCN(Cc3ccc4c(c3)OCO4)CC2)cc1 : HNF4A DNA FP: -2.7; FGF22 binding: .; ALR H2O2 inh: -3; LANA-H2B inh: 1.1; UCH37 DUB inh: 0.3; Ecoli growth: 0.76; B2AR ag: -5
Shown for O=C(c1cccc(Br)c1)N1CCN(C(=O)N2CCOCC2)CC1 : HNF4A DNA FP: 0.3; FGF22 binding: .; ALR H2O2 inh: 0; LANA-H2B inh: 3.2; UCH37 DUB inh: 5.5; Ecoli growth: 0.72; B2AR ag: 0

Additional structures follow:
SMILES	HNF4A DNA FP	FGF22 binding	ALR H2O2 inh	LANA-H2B inh	UCH37 DUB inh	Ecoli growth	B2AR ag
O=C(N[C@H](Cc1cc(=O)[nH]c2ccccc12)C(=O)O)c1ccc(Cl)cc1	2.2	i	-4	-0.5	5.5	0.68	-1
CCN(CC(=O)NCc1ccc(Cl)cc1)C(=O)CCC(=O)c1ccc(F)cc1	-0.2	i	0	-0.6	2.3	0.7	2
C=CCSc1nnc(C)n1-c1ccc(Cl)cc1	6.2	.	-14	4.0	-1.5	0.68	-4
CCOCCCNC(=O)C1(O)c2cc(Br)ccc2NC(=O)N1c1ccc(OCC)cc1 (stereo unspecified)	-1.6	i	-25	0.0	0.2	0.69	0
CC(C)(/C=N/O)/[N+]([O-])=C/C=[N+](\[O-])C(C)(C)/C=N/O	1.2	.	7	5.9	.	.	-11
Cc1cc(-c2ccccc2)n(-c2ccc(C(=O)N3CCN(c4ncccn4)CC3)cc2)n1	3.0	.	0	-5.6	0.5	0.67	-4
O=C(NC1CC1)C1=NOC(CNc2ncc(C(F)(F)F)cc2Cl)C1 (stereo unspecified)	5.7	.	-3	-4.5	-0.1	0.7	-8
Cc1nnc(SC2CC(=O)N(c3ccccc3)C2=O)s1 (stereo unspecified)	-1.4	.	16	4.1	2.6	0.71	0
O=C(NCCCN1CCCCCC1)C1CC(=O)N(CCc2ccccc2)C1 (stereo unspecified)	29	.	.	-0.5	1.3	0.7	-6
Cc1cccc(-c2nnc(SCC(=O)Nc3ncccn3)n2C)c1	-1.8	i	-4	-1.4	-0.8	0.71	-1

Two entries drawn at random from the list so far:
SMILES	HNF4A DNA FP	FGF22 binding	ALR H2O2 inh	LANA-H2B inh	UCH37 DUB inh	Ecoli growth	B2AR ag
Cc1cc(-c2ccccc2)n(-c2ccc(C(=O)N3CCN(c4ncccn4)CC3)cc2)n1	3.0	.	0	-5.6	0.5	0.67	-4
Cc1cccc(-c2nnc(SCC(=O)Nc3ncccn3)n2C)c1	-1.8	i	-4	-1.4	-0.8	0.71	-1

Next section.
SMILES	HNF4A DNA FP	FGF22 binding	ALR H2O2 inh	LANA-H2B inh	UCH37 DUB inh	Ecoli growth	B2AR ag
Cc1ccsc1/C=N\Nc1cn[nH]c(=O)c1Cl	0.2	i	17	-4.9	.	.	6
CCOC(=O)c1ccc(NC(=O)Nc2cc(C)on2)cc1	-2.6	.	3	0.9	0.4	0.65	0
O=C(NC1CC1)c1ccc2c(c1)S(=O)(=O)c1cc(Cl)ccc1C2=O	.	i	-1	0.2	.	.	.
O=C(Nc1ccccc1C(=O)N1CCOCC1)C1COc2ccccc2O1 (stereo unspecified)	0.1	i	-1	-0.3	2.7	0.64	2
CCOC(=O)C1CSC(CC(=O)Nc2ccc(OCC)cc2)C(=O)N1 (stereo unspecified)	1.5	.	-2	0.5	-2.6	0.69	3
CN(C)c1ccc(C2N(C)C(=O)c3ccccc3N2C)cc1 (stereo unspecified)	-1.9	i	?	-0.6	-18	0.68	-2
O=C(CNC(=O)c1ccc(Br)o1)NNC(=O)COc1ccccc1Cl	1.6	i	-1	2.5	1.7	0.62	-1
COc1ccc(NC(=O)Nc2ccc(Br)cn2)cc1OC	-4.6	.	.	3.1	1.6	0.64	-1
Cc1cccc(NCc2nc(SCC(=O)Nc3ccccc3)n[nH]2)c1	-1.4	i	31	3.3	2.6	0.64	-1
CC(C)[C@H](NC(=O)c1ccccc1)C(=O)OCC(=O)N1CCN(C(=O)c2ccco2)CC1	1.2	i	-2	-3.6	.	.	7
COc1ccc(Br)cc1C1CC(=O)N2CN(C)CSC2=C1C#N (stereo unspecified)	3.5	i	-14	-3.3	-0.9	.	5
CC1(C)Cc2nc3sc(C(=O)NCCO)c(N)c3cc2CO1	4.8	.	1	1.8	7.2	0.69	-5
CCc1nc(Sc2nc(C)cc(C)n2)c2oc3ccccc3c2n1	-2.2	.	9	-1.8	3.0	0.74	-3
O=C1C2C3C=CC([C@@H]2C(=O)N1C1CC1)[C@H]1C(=O)N(C2CC2)C(=O)C31 (stereo partly specified)	-2.4	.	-11	-2.5	-0.3	0.72	2
O=S(=O)(Nc1nc2ccccc2nc1NCC1CCCO1)c1cc(Cl)ccc1Cl (stereo unspecified)	1.1	i	46	0.2	-13	0.67	5
COc1ccc(Nc2nc(N)c([N+](=O)[O-])c(N3CCN(C)CC3)n2)cc1	-1.6	i	1	0.9	10	0.66	2
COc1ncccc1-c1nnn(-c2ccc(C)cc2)n1	2.2	i	0	4.3	-0.2	0.7	6
CCOC(=O)c1sc(NC(=O)CCCn2nc([N+](=O)[O-])cc2C)c(C(=O)OCC)c1C	-2.0	i	-3	-1.9	3.1	0.7	-9
COc1cc([N+](=O)[O-])ccc1NC(=O)Nc1nc2c(s1)CCCC2	-2.8	i	-9	5.3	4.1	0.73	2
CN(C(=O)Nc1ccc(Cl)cc1Cl)[C@H]1c2cc(Br)ccc2OC[C@H]1CO	3.3	.	0	-3.1	3.9	0.63	4
O=c1c2c(-c3cccs3)csc2ncn1-c1ccccc1	-0.1	.	-1	0.0	0.1	0.66	-10
CSCCC(NC(=O)c1ccc([N+](=O)[O-])cc1Cl)C(=O)OC1CCCCC1=O (stereo unspecified)	-4.4	i	-4	-4.4	1.1	0.7	4
COc1ccc(CC(=O)c2ccc(OC)c(OC)c2)cc1	3.4	i	1	1.9	4.0	0.69	0
COc1ccc(/C=N/Nc2nc3ccccc3s2)cc1O	-3.0	i	.	.	.	.	1
O=C(COc1ccc(Cl)cc1)Nc1ccc2c(c1)CCC2	-1.9	.	-14	1.6	2.0	0.68	1
COc1ccc(NC(=O)N2CCCCCC2)cc1	0.7	i	.	4.4	0.3	0.69	2
Cc1cccc(NC(=O)CNC(=O)c2ccc(-n3cncn3)c([N+](=O)[O-])c2)c1C	-2.3	i	.	.	-0.8	0.68	-2
COc1ccc(OCC(=O)NNC(=O)C2CCCO2)cc1 (stereo unspecified)	-2.6	.	-4	4.6	3.0	0.67	-24
CCN(CC)CCCn1c2c(c(SCC(=O)Nc3ccc(F)c(F)c3)nc1=O)CCC2	1.2	i	98*	-13	5.5	0.64	-6
Cc1cccc(Nc2nn3c(=O)c4ccccc4nc3s2)c1	75*	.	-3	5.8	-9.1	0.69	-4
N#Cc1c(N)nc2c3c(sc(=N)c2c1N)NC(=O)CC3c1ccccc1 (stereo unspecified)	7.2	.	-37	1.4	-115	0.67	-11
CC(=O)c1cccc(NS(=O)(=O)c2ccc(N/C=C\C(=O)c3ccc(F)cc3)cc2)c1	1.6	.	-2	2.1	-3.5	0.75	-6
O=C(N/N=C/c1ccccc1)c1ccc(N2CCOCC2)c([N+](=O)[O-])c1	1.1	i	5	-23	.	.	-4
COC(=O)Nc1nc2ccc(Br)cc2s1	1.7	.	1	-7.9	0.7	0.67	8
CCn1cc(CCC(=O)NCc2ccc(F)cc2)c2ccccc21	1.3	i	0	2.1	0.4	0.67	-10
CCCCN1C(=O)C(NC(=O)c2cccnc2)(C(F)(F)F)C2=C1CC(C)(C)CC2=O (stereo unspecified)	1.4	.	-2	-0.7	5.6	0.72	1
COc1ccccc1NC(=O)c1ccc(-n2cccn2)nc1	0.2	.	-1	1.3	4.7	0.66	-6
C/C(=N\NC(=O)c1c(Cl)c(C)nn1C)c1cccc(NC(=O)COc2ccccc2)c1	2.3	.	-1	1.2	.	.	19
COc1ccc(/C=C/C=C2\NC(=S)NC2=O)cc1	15	i	6	-1.7	6.7	0.63	-6
C/C(=C\C(=O)c1ccccc1)Nc1ccc(Cl)c(Br)c1	1.4	.	-1	1.2	5.3	0.69	.
CCC(=NCCc1c(C)[nH]c2ccc(C)cc12)C1=C(O)CC(c2ccccc2)CC1=O (stereo unspecified)	1.9	i	-7	2.0	4.9	0.73	19
Cc1ccc(-c2csc3ncn(CC#N)c(=O)c23)cc1C	-4.7	i	-8	2.0	.	.	0
Cc1[nH]c2ccccc2c1SCc1n[nH]c(=S)n1C	1.2	i	.	5.1	3.0	0.66	0
N#Cc1ccc(CSc2nnc(-c3c[nH]c4ccccc34)n2-c2ccccc2)cc1	-2.3	i	-12	-1.0	0.3	0.72	2
COc1ccc(C2(C)NC(=O)N(CC(=O)Nc3c(C)n(C)n(-c4ccccc4)c3=O)C2=O)cc1 (stereo unspecified)	1.5	i	-24	8.1	-0.3	0.63	-2
COc1cc(/C=C/C(=O)NC(C)C2CC3CCC2C3)cc(OC)c1OC (stereo unspecified)	2.9	i	-4	-7.3	-7.4	0.7	5
CCOC(=O)c1[nH]c2ccc(C)cc2c1N=CN(CC)CC	-1.2	.	99*	3.5	-1.9	0.74	-3

An excerpt, so the mix of outcomes need not match the whole.
